# Vif A3G = inhibitors of Vif binding to APOBEC3G peptide, primary screen, biochemical, TR-FRET, GST-Vif 1-94, biotin-A3G peptide, dose response retest (AID 1117319) | TR-FRET GST-Vif / biotin-A3G peptide binding; higher % means a stronger effect; test concentration not given here; strong numbers were not always called active | inhibition, %; hits with a dose series show IC50 in µM | 260,000 tested, 0.57% active;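 active means above the screen mean plus three standard deviations and confirmed in dose response; inconclusive means results disagree or hit not tested in dose response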;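 further: Vif residues 1-94 fused to GST binding biotinylated APOBEC3G peptide 110-148; 0% = full assay without inhibitor and 100% = GST in place of GST-Vif; retest series ran down from 100 µM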
# UCH37 DUB inh = inhibitors of human UCH37 deubiquitinase, primary screen, biochemical, Ub-AMC cleavage, fluorescence | purified proteasome/UCH37 | inhibition, % (concentration not given with the values) | 330,000 tested, 0.33% active | AID 588478, 2011;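 active means mean of two replicates above 20%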;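 further: 0% = compound-free wells with enzyme and 100% = wells lacking proteasome; stock transfer was 100 nL into about 20 µL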
# Target sequence (Q9Y5K5 whole entry, looked up): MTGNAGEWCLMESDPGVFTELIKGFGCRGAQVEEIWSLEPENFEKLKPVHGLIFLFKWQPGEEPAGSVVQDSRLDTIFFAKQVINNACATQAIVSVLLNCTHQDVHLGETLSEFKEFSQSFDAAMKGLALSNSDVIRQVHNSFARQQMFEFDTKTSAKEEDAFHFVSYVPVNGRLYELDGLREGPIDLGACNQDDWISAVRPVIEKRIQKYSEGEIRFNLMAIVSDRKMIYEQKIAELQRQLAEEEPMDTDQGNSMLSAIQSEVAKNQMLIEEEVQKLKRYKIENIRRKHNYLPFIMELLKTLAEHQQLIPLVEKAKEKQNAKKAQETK
#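 Material: human UCH37 enzyme supplied as purified proteasome complex / Amount: 0.15 nM proteasome as dispensed / Buffer or medium: pH 7.4 Tris-HCl (50 mM) with ovalbumin, ATP-MgCl2, DTT / Times: preincubation 30 min, reaction 25 min, room temperature / Technique: AMC fluorescence from Ub-AMC cleavage, excitation 355 nm, emission 460 nm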
# RanGTP-Imp inh = inhibitors of RanGTP-importin-beta interaction, primary screen, biochemical, FRET, CFP-Ran, YFP-importin-beta, homogeneous; Ran GTPase (GTP-bound) - importin-beta complex; cell-free CFP-Ran/YFP-importin-beta FRET ratio; inhibition, % (concentration not given with the values); 300,000 tested, 1.1% active;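 active means most replicates above 15%; inconclusive means exactly half above 15%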;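 further: 0% = DMSO wells and 100% = Ran loaded with GDP instead of GTP; wells of about 40 µL received 100 nL stock; the first replicate is given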
# AF4-AF9 inh = inhibitors of AF4 peptide binding to AF9, primary screen, biochemical, AlphaScreen, biotin-AF4 peptide, FLAG-AF9, single point. 350,000 tested, 0.47% active. Protein AF-9 (Homo sapiens), P42568. inhibition, % at 10 µM;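 active means every replicate reaching a set inhibition limit, whatever the replicate mean, cut at about 25% in these data; inconclusive means mean inhibition reaches that limit but some replicates miss it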;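 further: 0% = plate neutral control median and 100% = total signal loss; the record names both 10 and 1 µM as test concentration; the first replicate is given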
# Target sequence (P42568 whole entry, looked up): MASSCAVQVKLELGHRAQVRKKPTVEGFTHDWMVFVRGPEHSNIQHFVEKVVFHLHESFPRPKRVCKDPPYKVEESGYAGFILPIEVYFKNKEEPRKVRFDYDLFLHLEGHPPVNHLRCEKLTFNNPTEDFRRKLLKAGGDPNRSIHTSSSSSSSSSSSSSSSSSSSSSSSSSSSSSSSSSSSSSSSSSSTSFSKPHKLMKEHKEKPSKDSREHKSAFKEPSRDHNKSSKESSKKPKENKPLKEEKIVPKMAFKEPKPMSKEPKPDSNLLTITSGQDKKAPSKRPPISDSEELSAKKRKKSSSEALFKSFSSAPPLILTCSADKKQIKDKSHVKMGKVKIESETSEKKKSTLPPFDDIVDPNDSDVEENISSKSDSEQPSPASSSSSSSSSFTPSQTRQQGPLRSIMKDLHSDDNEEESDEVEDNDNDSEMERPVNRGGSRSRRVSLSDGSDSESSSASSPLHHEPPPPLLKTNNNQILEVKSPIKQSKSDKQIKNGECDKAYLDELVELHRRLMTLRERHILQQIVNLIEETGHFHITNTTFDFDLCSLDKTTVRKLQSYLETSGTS
# FGF22 binding = binders of human FGF22 protein, primary screen, FGF22 synaptogenesis inhibitor project, biophysical, thermal shift, single point; Fibroblast growth factor 22 (Homo sapiens), Q9HCT0; recombinant FGF22 thermal shift, SYPRO orange fluorescence; percent of sucrose octasulfate shift, DMSO zero; calls only at 9.99 µM; 340,000 tested, 1.5% active; AID 651658, 2012;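 active means melting point raised past a set limit in the mean and every replicate; inconclusive means no clear call; three in four hits are not shown here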
# Target sequence (Q9HCT0 whole entry, looked up): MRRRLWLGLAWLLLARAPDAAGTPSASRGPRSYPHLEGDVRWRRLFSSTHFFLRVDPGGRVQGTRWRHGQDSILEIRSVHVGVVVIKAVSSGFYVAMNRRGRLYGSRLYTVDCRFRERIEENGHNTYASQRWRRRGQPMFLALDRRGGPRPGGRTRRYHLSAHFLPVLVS
# HNF4A DNA FP = change in binding of human HNF4A to DNA, primary screen, biochemical, fluorescence polarization, FITC-DNA | 360,000 tested, 0.3% active | activity change, % at 10 µM | 1 h | Hepatocyte nuclear factor 4-alpha (Homo sapiens), P41235 | AID 1224865, 2016; in the data active means activity change above about 30%, passing the limit was not always enough;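 further: controls were the assay level and a saturating level of protein; the project sought stronger binding though the title names inhibitors; some compounds called inactive have numbers as strong as hits; positive values seem to mean higher polarization but the record does not say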
# E coli growth = E. coli growth inhibition, primary screen, OD600; 330,000 tested, 0.21% active; AID 1053175, 2014; Escherichia coli growth, 23 h; hits give low values; OD600 absorbance (test concentration not listed);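 active means OD600 absorbance below the run mean of sample wells minus 3.6 SD, in any replicate, cut at about 0.56 in these data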;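 further: stock transfer was 300 nL into about 60 µL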
# * = called active by the depositor; i = inactive; ? = inconclusive; . = not tested or not shown; & = joins results of further samples.
# Order of values: HNF4A DNA FP	RanGTP-Imp inh	AF4-AF9 inh	E coli growth	FGF22 binding	Vif A3G	UCH37 DUB inh
1. CC(NC(=O)c1cccnc1)C(c1cccs1)N1CCN(c2ccccc2F)CC1 (stereo unspecified)
    0.8	0.4	0.3	0.67	i	2%	1.5
2. Cc1ccccc1C(=O)c1cccn1CC(=O)NCCCc1ccccc1
    -0.6	4.9	-3.0	0.67	i	.	1.8
3. COc1ccccc1CNC(=O)c1ccccc1SCC(=O)NCc1ccco1
    -2.3	.	-4.8	0.7	i	2%	0.5
4. CCOC(=O)C1CCN(C(=O)c2ccc3c(c2)OCCO3)CC1
    -3.1	.	-3.3	0.66	i	.	1.1
5. CCN1CCN(S(=O)(=O)c2c(C)[nH]c(C)c2C(=O)N2CCCCC2)CC1
    -1.4	-1.9	0.9	0.65	i	.	2.6
6. Cc1nn(C)c(C(=O)N/N=C/c2cccc(Oc3ccccc3)c2)c1Br
    -1.1	8.0	-1.5	.	i	?	.
7. CN(C(=O)c1ccc(NC(=O)Cc2cccc(NC(=O)C3CCN(C(=O)C4CC4)CC3)c2)cc1)C1CC1
    2.1	.	0.3	0.68	i	-3%	4.1
8. O=C(CCS(=O)(=O)c1ccc(Br)s1)N1CCc2ccccc21
    1.2	-1.1	.	0.73	.	18%	1.9
9. CCC/C(O)=C1\C(=O)CC(C)(C)CC1=NCc1ccccc1
    1.7	1.5	-0.5	0.66	i	-11%	3.8
10. COc1ccc(N2C(=O)c3cccc4cccc(c34)C2=O)cc1
    -0.8	-2.5	-19	0.7	i	-9%	-1.3
11. CCOC(=O)c1ccc(-n2c(=S)sc3c(=O)[nH]c(C)nc32)cc1
    -0.2	1.0	.	0.69	.	-1%	8.8
12. CCN(CC)S(=O)(=O)c1cc(NC(=O)CSCc2c(C)noc2C)ccc1C
    1.5	.	0.1	0.68	i	-3%	0.5
13. O=C(CCl)Nc1ccc(S(=O)(=O)NC2=NCCCCC2)cc1
    -1.7	.	-0.9	0.67	i	-10%	1.6
14. COc1ccc2oc(=O)c(C(=O)NCCc3ccc(OC)c(OC)c3)cc2c1
    -0.4	2.1	-2.8	0.68	i	.	-42
15. COc1ccc(OCC(=O)N/N=C/c2cccc3cccnc23)cc1
    3.8	0.1	-1.3	.	i	-5%	.
16. O=C(COc1ncnc2ccccc12)NC1CCCCC1
    0.5	.	-0.1	0.6	i	.	1.5
17. Cc1cc(N(C)C)c(C#N)c(N2CCOCC2)n1
    -0.1	4.8	.	0.73	.	4%	0.8
18. CC(C)(C)OC(=O)[C@H](NC(=O)OCc1ccccc1)c1ccccc1
    1.7	.	-13	.	i	.	0.2
19. O=C1C[C@@H]2CCN3C(=O)CCC[C@@H]([C@H]23)[C@@H]1Cc1ccccc1
    -0.6	.	-1.9	0.69	i	-2%	3.2
20. COc1cc2c(C(=O)N3CCN(c4ccccc4)CC3)c(C)oc2cc1Br
    -1.9	5.0	.	0.68	.	5%	3.3
21. Nc1cnn(C2CCCO2)c(=O)n1 (stereo unspecified)
    1.6	2.2	.	0.68	.	0%	1.1
22. CN1CCN(S(=O)(=O)c2ccc(N3CCc4ccccc4C3)nc2)CC1
    3.7	-1.9	1.0	0.69	i	-74%	3.7
23. CNC(=O)CSc1nnc(-c2cnccn2)n1C
    -1.7	0.5	-1.1	0.69	i	-2%	0.1
24. Cc1ccc(C)c(N2CCN(C(c3ccccc3)c3nnnn3C(C)(C)C)CC2)c1 (stereo unspecified)
    2.8	.	3.0	.	i	.	.
25. CO/N=C/c1ccc(N2CCOCC2)c([N+](=O)[O-])c1
    5.7	-0.9	1.5	.	i	-1%	.
26. COc1cccc(OC)c1OCC(C)CNCC1CCCO1 (stereo unspecified)
    -1.8	0.1	-48	0.67	i	-2%	0.7
27. COC(=O)c1[nH]c2ccc(F)cc2c1NC(=O)Nc1ccc(OC)cc1
    3.1	5.5	.	0.78	.	5%	-6.0
28. CN(C)CCSc1nc(N)c2c3c(sc2n1)CN(C)CC3
    28	7.8	.	.	.	1%&-2%	-16
29. COC(=O)c1sccc1NC(=O)c1cccnc1
    1.2	0.5	.	0.65	.	?	1.9
30. Cc1cc2c(c(=O)n1C1CC1)C(c1cccc(Cl)c1)C(C#N)=C(N)O2 (stereo unspecified)
    28	20*	.	0.67	.	-99%	0.2
31. O=C(CNS(=O)(=O)c1cccs1)N1CCN(c2ccccn2)CC1
    -0.6	2.4	.	0.65	.	-26%	-0.3
32. Cc1ccc(Cn2nnc3c(=O)[nH]c(C4CCN(S(=O)(=O)/C=C/c5ccccc5)CC4)nc32)cc1
    2.3	0.2	1.1	0.71	i	.	0.8
33. COC(=O)C1C2C=CC(C3CC23)C1C(=O)OCC(=O)c1ccc(OC)cc1 (stereo unspecified)
    4.9	-1.5	.	0.69	.	8%	1.9
34. C=CC[C@H](CC(=O)N(CCO)Cc1ccccc1)C(=O)N[C@@H](C)COC(=O)[C@H](CC=C)CC(=O)OC(C)(C)C
    7.2	.	-1.4	.	i	.	3.2
35. Cn1c(SCC(=O)NCCC2=CCCCC2)nnc1C(F)(F)F
    1.3	.	-0.3	.	i	4%	.
36. CCn1c(CC(=O)Nc2ccccc2F)nnc1SCC(=O)N1CCOCC1
    0.7	?	-1.0	0.72	i	.	0.4
37. Cc1cc(C)cc(NC(=O)COC(=O)c2cccc(S(=O)(=O)N3CCCCC3)c2)c1
    -3.3	.	0.6	0.69	i	-10%	3.4
38. CCc1ccc(OCC(O)CNC(C)(C)C)cc1 (stereo unspecified)
    1.1	9.1	-2.3	0.72	i	-2%	4.6
39. S=C(NCc1ccccc1)NCc1ccco1
    0.7	0.1	1.9	0.61	i	.	2.7
40. CCOC(=O)c1c(NC(=O)CN(C)C)sc(C(=O)N(CC)CC)c1C
    4.5	-1.6	.	0.74	.	-13%	2.8
41. COC(=O)C1=C(C)NC(=O)NC1c1ccc([N+](=O)[O-])o1 (stereo unspecified)
    3.0	-1.6	2.3	0.68	i	8%	4.5
42. Cc1cc(C)c2c(CN3CCN(Cc4ccccc4)CC3)cc(=O)oc2c1
    -0.5	0.0	3.4	0.67	i	-2%	1.4
43. O=C(NCc1cccc(Cl)c1)c1ccc2c(c1)OCO2
    4.0	-3.1	.	0.64	.	3%	0.9
44. COc1ccccc1NC(=O)C(C)OC(=O)c1cc2ccccc2[nH]1 (stereo unspecified)
    -2.0	.	-0.6	.	i	.	.
45. COc1ccc(S(=O)(=O)N2CCCCCC2)cc1NC(=O)CC1OC(=O)c2ccccc21 (stereo unspecified)
    0.9	-3.0	-5.5	0.68	i	1%	6.5
46. COc1ccccc1/C=C/C=N/n1c(-c2cc(-c3ccccc3)n[nH]2)n[nH]c1=S
    -0.8	2.2	8.5	.	i	6%	.
47. CC(=O)c1c(C)[nH]c(C(=O)OCC(=O)Nc2cccc(S(=O)(=O)N3CCCC3)c2)c1C
    1.8	2.6	.	0.68	.	.	1.0
48. Cc1cc(C)n(CC(=O)n2c3c(c4ccccc42)CCCC3)n1
    -0.8	-1.3	.	0.73	.	2%	3.3
49. Cc1cccc(C(=O)OCC(=O)Nc2ccccc2C(=O)NC2CC2)c1
    -2.5	.	1.8	0.71	i	1%	1.1
50. Cc1noc(C)c1CSc1nnc(-c2ccccc2F)n1CCc1ccccc1
    0.5	1.7	.	0.7	.	6%	2.1
51. COc1ccc(CCCNC(=O)C2(C)Cc3c(-c4ccc(NC(C)=O)cc4)ccnc3O2)cc1 (stereo unspecified)
    2.0	.	-1.3	.	i	.	.
52. Cc1cc(C)n(Cc2cccc(C(=O)N/N=C/c3cccnc3)c2)n1
    -1.8	-1.9	0.1	.	i	.	.
53. Cc1cccc(C)c1NC(=O)COC(=O)COc1ccc2c(C)cc(=O)oc2c1
    0.6	-1.9	2.0	0.71	i	-29%	-45
54. Cc1cccc(C)c1NC(=O)Cn1nc(-c2ccc(Cl)s2)ccc1=O
    -1.3	-4.9	-0.3	0.61	i	.	-3.8
55. CCOC(=O)C1=C(C)NC(=O)CC1c1cc2c(cc1Br)OCO2 (stereo unspecified)
    0.1	1.7	.	0.72	.	3%	-5.5
56. COc1cccc(/C(C)=N/NC(=O)Cc2c(C)[nH][nH]c2=O)c1
    1.6	.	-2.3	.	i	19%	.
57. COC(=O)CSc1cc(C)nc(NC(C)=O)n1
    2.7	0.5	.	0.65	.	4%	3.8
58. CCCc1nc2oc3c(NCCN4CCOCC4)ncnc3c2c2c1CCCC2
    1.5	-0.7	.	0.7	.	.	1.9
59. COc1cccc(NC(=O)N2CCC(NC(=O)C(Cc3ccccc3F)NC(C)=O)CC2)c1 (stereo unspecified)
    2.7	-0.9	-1.1	.	i	3%	.
60. CN(Cc1cnn(C)c1)C(=O)C1CCC(=O)N(Cc2cccc(C(F)(F)F)c2)C1 (stereo unspecified)
    0.6	4.3	-3.9	0.68	i	.	2.3

# Reprinted from the part before: 2 entries, then new ones.
# Order of values: HNF4A DNA FP	RanGTP-Imp inh	AF4-AF9 inh	E coli growth	FGF22 binding	Vif A3G	UCH37 DUB inh
59. COc1cccc(NC(=O)N2CCC(NC(=O)C(Cc3ccccc3F)NC(C)=O)CC2)c1 (stereo unspecified)
    2.7	-0.9	-1.1	.	i	3%	.
60. CN(Cc1cnn(C)c1)C(=O)C1CCC(=O)N(Cc2cccc(C(F)(F)F)c2)C1 (stereo unspecified)
    0.6	4.3	-3.9	0.68	i	.	2.3
61. CC1(C)NC(=O)N(CC(O)COc2cc3ccccc3cc2C(=O)N2CCCCC2)C1=O (stereo unspecified)
    -0.1	1.7	.	0.74	.	1%&-2%	0.1
62. O=S(=O)(NCc1ccc(Cl)cc1)NCc1ccc(Cl)cc1
    -2.4	-2.4	0.3	0.69	i	-4%	1.8
63. COc1ccc(S(=O)(=O)N2CCCC(C(=O)Nc3cccc(C(C)=O)c3)C2)cc1 (stereo unspecified)
    0.1	4.4	.	0.74	.	10%	5.0
64. CCC(C(=O)NC1CCCCCC1)n1nc(C)c2c(C)n(-c3ccccc3)nc2c1=O (stereo unspecified)
    3.7	1.1	-1.0	0.67	i	.	2.9
65. CC(=O)c1ccc(-c2c(C)cc3oc(=O)cc(-c4ccccc4)c3c2C)cc1
    3.0	.	4.2	.	i	.	.
66. COc1cccc(C2CC(c3c(-c4ccccc4)c4cc(Cl)ccc4[nH]c3=O)=NN2S(C)(=O)=O)c1OC (stereo unspecified)
    22	-2.0	.	0.72	.	7%	4.1
67. O=C(COC(=O)c1cccnc1Cl)NCCc1ccccc1
    -1.1	.	1.2	0.67	i	-17%	-4.5
68. COc1ccc(CCC(=O)OCC(=O)c2ccc(C)cc2)cc1
    0.8	2.8	.	0.67	.	.	3.2
69. O=C(CCC(=O)Nc1ccccc1)NNC(=O)c1cccs1
    2.4	5.0	.	0.68	.	4%	3.2
70. COc1ccc(Cl)cc1C(=O)NNC(=O)c1n[nH]c2ccccc12
    -1.1	.	-0.5	0.74	i	-2%	-1.1
71. Cc1ccccc1NC(=O)c1cccc(NC(=O)CCC(=O)O)c1
    -2.8	-1.6	0.2	0.66	i	9%	5.3
72. CCOc1ccccc1N1CCN(C(=O)c2cccc(-c3ccc(O)cc3)c2)CC1
    1.0	2.0	.	0.68	.	16%	2.5
73. COc1ccccc1NS(=O)(=O)c1cc(NC(=O)c2ccc3c(c2)OCCO3)ccc1C
    -3.2	3.1	.	0.69	.	.	4.5

# Some of the compounds tested (hit frequency here may not be typical).
